# KCNQ2 inh – KCNQ2 potassium channel inhibitors, primary screen, cell-based, CHO-K1, FluxOR thallium flux, B-score (AID 2156) | 20 min; stronger effect = lower value; only compounds with negative scores are shown here; some inactives read as strong as hits | B-score at 10 µM | 1.1% of 310,000 active;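 active = fluorescence ratio B-score at most minus 3 library SDs, with starting brightness B-score within 2 library SDs, cut at about -5.5 in these data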
# Target sequence (O88943 whole entry, looked up): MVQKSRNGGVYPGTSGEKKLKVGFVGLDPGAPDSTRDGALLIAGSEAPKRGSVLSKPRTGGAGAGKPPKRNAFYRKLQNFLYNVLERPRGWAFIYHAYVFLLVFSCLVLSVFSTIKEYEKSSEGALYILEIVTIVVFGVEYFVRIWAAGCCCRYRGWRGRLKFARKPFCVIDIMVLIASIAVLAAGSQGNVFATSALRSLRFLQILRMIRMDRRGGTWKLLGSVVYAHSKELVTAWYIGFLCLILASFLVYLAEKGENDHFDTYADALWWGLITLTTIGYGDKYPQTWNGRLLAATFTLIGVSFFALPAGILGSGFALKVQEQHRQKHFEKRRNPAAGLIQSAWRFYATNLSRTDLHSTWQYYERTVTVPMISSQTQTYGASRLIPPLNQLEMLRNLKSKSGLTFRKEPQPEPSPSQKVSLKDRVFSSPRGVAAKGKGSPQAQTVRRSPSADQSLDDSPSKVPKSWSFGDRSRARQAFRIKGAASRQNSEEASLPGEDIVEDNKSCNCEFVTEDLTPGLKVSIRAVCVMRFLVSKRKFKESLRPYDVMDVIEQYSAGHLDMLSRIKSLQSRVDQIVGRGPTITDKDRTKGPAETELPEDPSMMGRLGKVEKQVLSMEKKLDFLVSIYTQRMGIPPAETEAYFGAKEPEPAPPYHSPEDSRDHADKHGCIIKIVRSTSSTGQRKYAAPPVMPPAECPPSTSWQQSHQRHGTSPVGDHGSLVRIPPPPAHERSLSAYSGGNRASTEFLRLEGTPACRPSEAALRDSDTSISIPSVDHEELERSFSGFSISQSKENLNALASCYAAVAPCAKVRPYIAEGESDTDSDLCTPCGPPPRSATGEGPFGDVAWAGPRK
# KCNQ2 inh baseline – further read-out of KCNQ2 inh, marked with its call; B-score; measured here: initial fluorescence intensity artifact check;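 brightness before thallium and not channel activity; 0 = typical well and far values either way flag optical interference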
# * marks the source's active call; other numbers are inactive results; i = inactive. The list is partial; rates above refer to the full screens.
KCNQ2 inh | KCNQ2 inh baseline | SMILES
i | -2.26 | COc1ccc(Cn2c(=N)c(C(=O)NC3CCCCC3)cc3c(=O)n4ccccc4nc32)cc1
i | -1.99 | Cc1ccc(Cl)cc1N1CCN(C(=O)Cc2cn(C)c3ccccc23)CC1
i | -0.43 | O=C(CN(c1ccc(Cl)c(C(F)(F)F)c1)S(=O)(=O)c1ccccc1)N1CCOCC1
i | -0.55 | Cc1ccc(S(=O)(=O)N2CCCCC2C(=O)N2CCN(Cc3ccccc3)CC2)cc1 (configuration not stated)
i | -0.52 | COc1ccc(NC(=S)N(CCc2c(C)[nH]c3ccc(C)cc23)Cc2ccco2)cc1
i | 1.11 | CCC1=NN(C(=O)C(=O)Nc2ccccc2OC)C(O)(C(F)(F)F)C1 (configuration not stated)
i | -0.03 | Cn1nc(-c2ccc(Cl)cc2)c2cc(C(=O)N3CCOCC3)sc21
i | -0.46 | COc1cccc(-n2nnc3c(=O)n(CC(=O)N4CCC(C)CC4)cnc32)c1
i | 0.14 | COc1ccc(N=c2scc(-c3ccc(OC)cc3)n2CCO)cc1
i | -2.44 | CC(C)COc1ccc(C(=O)OCC(=O)N(C)CC(=O)Nc2ccc(F)cc2)cc1
i | -1.43 | O=C(O)C1C(c2ccccc2)C(C(=O)Oc2ccccc2)C1c1ccccc1 (configuration not stated)
i | -2.06 | COc1ccc(Cn2c(=O)[nH]c3cc(C(=O)N4CCN(c5ccccn5)CC4)ccc3c2=O)cc1
i | 0.77 | COc1ccc(C2=NOC(Cn3nc(C(=O)NCc4cccc(C(F)(F)F)c4)cc3-c3ccccc3)C2)cc1 (configuration not stated)
i | -1.62 | CC(C)CCNC(=O)c1ccc(-c2ccccc2)cc1
i | 1.1 | COc1cccc(OC)c1C(=O)NC(=S)Nc1ccc(N2CCOCC2)c(Cl)c1
i | -1.29 | Cc1ccc2c(c1)c1c(c(=O)n(-c3ccccc3C)c(=O)n1CC(=O)NCC1CCCO1)n2C (configuration not stated)
i | 2.7 | O=C(NCc1ccco1)C1CCCN1C(=O)Nc1ccccc1[N+](=O)[O-] (configuration not stated)
i | 1.25 | COc1cccc(C(=O)Nc2nc(-c3ccncc3)cs2)c1
i | 0.44 | CC1=C(C(=O)N2CCOCC2)C(c2c(C)cc(C)cc2C)NC(=S)N1 (configuration not stated)
i | -0.06 | COCCN(Cc1cc2cc(C)cc(C)c2nc1Cl)C(=O)Nc1ccccc1
i | -0.01 | COc1ccc(N2CCN(S(=O)(=O)CCNC(=O)COc3ccc(Cl)cc3)CC2)cc1
i | 0.37 | COc1ccccc1-c1ocnc1C(=O)N1CCN(C(=O)C(c2ccccc2)c2ccccc2)CC1
i | 0.98 | O=C(Nc1cccc(-n2cnnn2)c1)c1cnccc1Cl
i | 0.13 | CC(C)(Cc1ccc(O)cc1)NC(=O)CC(=O)N=Nc1c(O)[nH]c2cc(Br)ccc12
i | -0.98 | CC(=O)Nc1ccc(NC(=O)C2CCCN2C(=O)Nc2ccccc2[N+](=O)[O-])cc1 (configuration not stated)
i | 0.81 | CCC(=O)Oc1ccc(C2N(C(=O)CC)CCN2S(=O)(=O)c2ccc(C)cc2)cc1OC (configuration not stated)
i | -1.83 | CC1CCCN(S(=O)(=O)c2cc3c4c(c2)C(C)C(=O)N4CCC3)C1 (configuration not stated)
i | -0.13 | COc1ccc(NC(=O)[C@H](C)NC(=O)C2CCN(S(=O)(=O)c3ccc(OC)cc3)CC2)cc1
i | -0.03 | CCc1nc2ccccc2nc1N1CCN(S(=O)(=O)c2ccccc2)CC1
i | 2.01 | CCC(=O)c1cc(F)c(N2CCN(C(=O)c3ccco3)CC2)cc1C
i | 0.21 | Cc1ccccc1Cn1ccc(NC(=O)c2cc3ncc(Br)cn3n2)n1
i | 1.26 | COc1ccc(OC)c(C2SCCN2S(=O)(=O)c2cccc(C(F)(F)F)c2)c1 (configuration not stated)
i | -0.81 | Cc1nc(N2CCN(c3ccccn3)CC2)c2c(C)c(C(=O)Nc3c(F)cc(F)cc3Br)sc2n1
i | -2.96 | COC(=O)c1sccc1NC(=O)COc1ccc(F)cc1Cl
i | -1.01 | O=C(CSc1nc2ccccc2o1)Nc1nc2ccc(Br)cc2s1
i | -0.52 | Cc1ccc(S(=O)(=O)N(C)c2ccc(C(=O)NCc3ccccn3)cc2)cc1
i | -1.48 | Cc1nn(C(C)C(=O)N/N=C/c2ccc(N(C)C)cc2)c(C)c1[N+](=O)[O-] (configuration not stated)
i | 2.36 | Cc1ccc(Cn2c(NCCCn3ccnc3)nc3c2c(=O)n(C)c(=O)n3C)cc1
i | 5.86 | Cc1ccc(/C(C#N)=C\c2ccc(N3CCOCC3)o2)cc1
i | 0.81 | N#Cc1c(NC(=O)CSc2nnc(-c3ccccc3O)n2-c2ccccc2)sc2c1CCCC2
i | 1.47 | CCN(C(=O)CCCCC(=O)N(CC)c1ccccc1)c1ccccc1
i | -1.5 | CCOC(=O)c1c(C)nc2sc3c(=O)n(-c4ccc(C(C)=O)cc4)nnc3c2c1-c1ccc(Cl)cc1
i | 0.58 | Cc1ccccc1CCN1CCCC(CN(C)C(=O)C(=O)c2ccco2)C1 (configuration not stated)
i | -0.07 | CCOc1ccc(C2Sc3ccccc3NC3=C2C(=O)OC3)cc1 (configuration not stated)
i | 0.06 | COc1ccc(NC(=O)c2c(Cl)n(C)c3ccccc23)cc1
i | 0.11 | CCOc1ccccc1C(=O)Oc1ccc2ccc(=O)oc2c1
i | -0.98 | O=P(O)(c1ccc(Cl)cc1)c1ccc(Cl)cc1
i | 0.06 | CN(C(=O)c1ccoc1)c1ccc2ccccc2c1
i | -1.9 | O=S(=O)(O/N=C1\CCCc2ccccc21)c1ccc(Cl)cc1
i | 0.76 | CC(C)(C)OC(=O)CNC(=O)c1[nH]cnc1C(=O)N[C@@H](Cc1ccccc1)C(=O)OC(C)(C)C
i | 0.62 | Cc1[nH]c2ccccc2c1C(=O)CSC(=S)N1CCN(C)CC1
i | -0.1 | O=C(NC(=S)Nc1ccc(Br)cc1)C1CCCCC1
i | 0.06 | COc1ccccc1-n1c(-c2ccco2)n[nH]c1=S
i | -0.97 | O=C(NCCc1ccccn1)c1cccc(S(=O)(=O)N2CCc3ccccc32)c1
i | 1.03 | O=S(=O)(/N=S1/CC=CCN1S(=O)(=O)c1ccccc1)c1ccccc1 (configuration not stated)
i | -0.36 | CCc1ccccc1N1C(=O)c2cccc3c(N4CCOCC4)c([N+](=O)[O-])cc(c23)C1=O
i | -0.94 | COc1cc(C2C3C(=O)N(Cc4ccccc4)C(=O)C3ON2c2ccccc2)cc(OC)c1O (configuration not stated)
i | 2.17 | O=C(Nc1cccc(OCC(=O)N2CCOCC2)c1)C1CCCCC1
i | -0.04 | CCc1ccc(S(=O)(=O)NCc2csc(C)n2)s1
i | -0.74 | CCc1cc2cc(C(=O)N3CCN(c4ccccc4)CC3)sc2s1

# Next section:
KCNQ2 inh | KCNQ2 inh baseline | SMILES
i | -1.18 | Nc1nnc(SC2CC(=O)N(c3ccccc3)C2=O)s1 (configuration not stated)
i | 0.05 | CCOC(=O)C1CCCN(C(=O)C(=O)c2cn(CC(=O)N3CCOCC3)c3ccccc23)C1 (configuration not stated)
i | 1.62 | O=C(COC(=O)c1ccccc1O)Nc1cccc(S(=O)(=O)NC2=NCCCCC2)c1
i | 2.16 | COC(=O)[C@@H]1CC[C@@](C)(c2ccc(OC)cc2)C1(C)C
i | 0.11 | CC(=O)Nc1ccc2nc(NC(=O)c3cccnc3)sc2c1
i | 0.45 | COc1ccc(-c2cn[nH]c2-c2ccc(OCc3ccccc3)cc2O)cc1
i | -0.14 | CN(c1cccc(Cl)c1)S(=O)(=O)c1cccc(C(=O)Nc2ccc3c(c2)CCC3)c1
i | -0.3 | CCCN1CCC(NC(=S)Nc2ccc(C(=O)OCC)cc2)CC1
i | 2.15 | COc1ccc(/C=N/NC(=O)CN(C2=NS(=O)(=O)c3ccccc32)c2ccccc2)cc1
i | 1.22 | S=C(NN=C(C1CC1)C1CC1)Nc1ccccc1
i | -0.09 | CC(C)C[C@H](NC(=O)c1nc[nH]c1C(=O)NCc1ccc(CNC(=O)OC(C)(C)C)cc1)C(=O)OC(C)(C)C
i | -0.21 | COc1cc2ccccc2cc1C(=O)Nc1ccc(Cl)cn1
i | 0.81 | O=C(CSc1ccccc1C(=O)NCc1ccccc1)NC1CCCCCCC1
i | 0.29 | O=C(/C=C/c1ccc(F)cc1)NC(=S)Nc1ccccc1
i | 0.56 | CCn1c(CCNC(=O)c2ccc(Cl)cc2Cl)n[nH]c1=S
i | 1.31 | CCN(CC)S(=O)(=O)c1ccc(Cl)c(NC(=O)COC(=O)c2cc(-c3ccccc3Cl)nc3ccccc23)c1
i | 0.45 | Cc1cc(/C=N/O)c(C)n1-c1ccc(Br)cc1
i | 1.86 | C=CCC(Nc1ccco1)c1ccccc1 (configuration not stated)
i | 0.85 | CCOC(=O)N1CCC(N(C(=O)Nc2ccc(Cl)c(Cl)c2)C(C)CC)CC1 (configuration not stated)
i | -1 | CC(C)NC(=O)C1CCN(C2CCN(C(=O)c3cc4c(s3)CCCCC4)CC2)CC1

# 4 compounds picked at random from the list so far:
KCNQ2 inh | KCNQ2 inh baseline | SMILES
i | 0.45 | Cc1cc(/C=N/O)c(C)n1-c1ccc(Br)cc1
i | 1.62 | O=C(COC(=O)c1ccccc1O)Nc1cccc(S(=O)(=O)NC2=NCCCCC2)c1
i | 1.22 | S=C(NN=C(C1CC1)C1CC1)Nc1ccccc1
i | 0.56 | CCn1c(CCNC(=O)c2ccc(Cl)cc2Cl)n[nH]c1=S

# Other structures.
KCNQ2 inh | KCNQ2 inh baseline | SMILES
i | 0.63 | NCC1CC2c3ccccc3C1c1ccccc12 (configuration not stated)
i | -0.68 | COCc1nc2ccccc2n1CCc1ccccc1
i | -0.05 | CCOC(=O)c1c(C)[nH]c(C(=O)Cn2c(=O)c3c(ncn3CC)n(Cc3ccccc3)c2=O)c1C
i | 3.51 | COc1ccc(OCC(=O)N2c3ccc(C)cc3C3CN(C)CCC32)cc1 (configuration not stated)
-6.08* | -0.31* | COCCN1C(=O)/C(=C/c2ccc(OCc3ccc(C(=O)O)cc3)c(OC)c2)SC1=Nc1ccccc1
i | 1.13 | Cc1ccc(OC(=O)c2cccc(S(=O)(=O)N(C)C)c2)c(-n2nc3ccccc3n2)c1
i | -0.02 | CC(=O)Nc1ccc(NC(=O)CSc2ncc(C(=O)Nc3ccccc3)c(=O)n2C)cc1
i | 0.05 | CC(C)C[C@@H](CN(C)N=O)N(C[C@H](Cc1ccccc1)N(CCc1ccccc1)N=O)N=O
i | -0.45 | O=C(O)Cn1cc(F)c(=O)[nH]c1=O
i | 0.01 | Cc1ccc(C2=NN(S(C)(=O)=O)C(c3cccs3)C2)cc1 (configuration not stated)
-7.84* | 1.17* | CC1CCC(C(C)C)C2=C1C(C#N)(C#N)C(C#N)(C#N)C(c1ccccc1)N2 (configuration not stated)
i | 0.13 | Nc1c(O)ccc2c1C(=O)c1ccccc1C2=O
i | -0.64 | O=C(/C=C/c1ccccc1)N/C(=C\c1ccco1)C(=O)NCCO
i | -0.14 | CCOc1ccc(CN(C(=O)c2cccs2)C2CCS(=O)(=O)C2)cc1 (configuration not stated)
i | 0.35 | COc1ccc(-c2cc(C(=O)N3CCN(S(=O)(=O)c4ccccc4)CC3)[nH]n2)cc1
i | -1.63 | CN=C1c2cc3cc(OC)ccc3n2CCN1Cc1ccccc1
i | 0.49 | CC(C)C(=O)Nc1ccc(C(=O)Nc2nnc(C(C)(C)C)s2)cc1
i | -0.75 | CCc1ccc(NC(=O)CN2CCC(C(=O)c3ccc(OC)cc3)CC2)cc1
i | 0.05 | NS(=O)(=O)c1cccc(NC(=O)Cn2cc(C(F)(F)F)cc(Cl)c2=O)c1
i | 4.98 | COC(=O)c1[nH]c2cc(C)ccc2c1NC(=O)CN1CCCc2ccccc21

# 2 of the compounds above, with values under each structure.
# Results follow in this order: KCNQ2 inh, KCNQ2 inh baseline
> COC(=O)[C@@H]1CC[C@@](C)(c2ccc(OC)cc2)C1(C)C
 : i, 2.16
> CC(=O)Nc1ccc2nc(NC(=O)c3cccnc3)sc2c1
 : i, 0.11

# Further structures follow.
KCNQ2 inh | KCNQ2 inh baseline | SMILES
i | 0.01 | COc1ccc(NC(=O)CSc2nc3[nH]ncc3c(=O)[nH]2)c(OC)c1
i | -0.43 | COc1ccc(C)cc1S(=O)(=O)N1CCC(C(=O)NCCc2ccccc2)CC1
i | 0.2 | CC(=O)C1=C(O)C(=O)N(c2ccc(S(N)(=O)=O)cc2)C1c1cccc([N+](=O)[O-])c1 (configuration not stated)
i | -0.36 | CCCC1Cc2c(sc(N)c2C#N)CO1 (configuration not stated)
-6.83* | 1.84* | Cc1ccc(-c2nc3ccccc3c(=O)n2NC(=O)COc2ccccc2)cc1
i | 0.94 | COc1ccc(C2C=C(C)Nc3nc4ccccc4n32)cc1 (configuration not stated)
i | -1.12 | COc1ccc(-c2nc(N)n(C(=O)Cc3ccccc3)n2)cc1
i | 25.6 | CC[n+]1ccc(/C=C/c2c[nH]c3ccccc23)cc1
i | 0.1 | N#Cc1ccsc1NC(=O)C1CCN(C(=O)c2ccc(Cl)cc2)CC1
i | 0.87 | CN(C(=O)c1ccco1)c1nnc(C23CC4CC(CC(C4)C2)C3)s1
i | -0.11 | Cc1ccc(NCC(=O)N/N=C/c2cc3ccccc3nc2Cl)cc1
i | 0.13 | COc1ccc(C(=O)Nc2cccc3c2CCCC3)cc1OC
i | 5.37 | CC(=O)N/N=C/c1cc(C(C)(C)C)cc(/C=N/NC(C)=O)c1O
i | -0.03 | COCCCN1C(=O)c2ccc(C(=O)NCc3ccccn3)cc2C1=O

# Filtered by structure, the entries above with a CF3 group
KCNQ2 inh | KCNQ2 inh baseline | SMILES
i | -0.43 | O=C(CN(c1ccc(Cl)c(C(F)(F)F)c1)S(=O)(=O)c1ccccc1)N1CCOCC1
i | 1.11 | CCC1=NN(C(=O)C(=O)Nc2ccccc2OC)C(O)(C(F)(F)F)C1 (configuration not stated)
i | 0.77 | COc1ccc(C2=NOC(Cn3nc(C(=O)NCc4cccc(C(F)(F)F)c4)cc3-c3ccccc3)C2)cc1 (configuration not stated)
i | 1.26 | COc1ccc(OC)c(C2SCCN2S(=O)(=O)c2cccc(C(F)(F)F)c2)c1 (configuration not stated)
i | 0.05 | NS(=O)(=O)c1cccc(NC(=O)Cn2cc(C(F)(F)F)cc(Cl)c2=O)c1
